# High-throughput results: PubChem, Johns Hopkins Ion Channel Center
# KCNQ2 pot = enhances the rat KCNQ2 potassium channel; CHO-K1 KCNQ2, FluxOR thallium flux fluorescence; stronger effect = higher value; B-score at 10 µM; 0.54% of 310,000 active;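 active = fluorescence ratio B-score at least 3 SD of library B-scores, with initial fluorescence B-score within 3 SD, cut at about 5.3 in these data; same plate scores as AID 2156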;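 note: B-score of peak minus minimum over baseline fluorescence ratio after K+ and Tl+ stimulus; positive B-score means potentiation of KCNQ2 with more thallium influx and brighter signal; only the inactives scoring about 0 or higher are listed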
# Target sequence (O88943 whole entry, looked up): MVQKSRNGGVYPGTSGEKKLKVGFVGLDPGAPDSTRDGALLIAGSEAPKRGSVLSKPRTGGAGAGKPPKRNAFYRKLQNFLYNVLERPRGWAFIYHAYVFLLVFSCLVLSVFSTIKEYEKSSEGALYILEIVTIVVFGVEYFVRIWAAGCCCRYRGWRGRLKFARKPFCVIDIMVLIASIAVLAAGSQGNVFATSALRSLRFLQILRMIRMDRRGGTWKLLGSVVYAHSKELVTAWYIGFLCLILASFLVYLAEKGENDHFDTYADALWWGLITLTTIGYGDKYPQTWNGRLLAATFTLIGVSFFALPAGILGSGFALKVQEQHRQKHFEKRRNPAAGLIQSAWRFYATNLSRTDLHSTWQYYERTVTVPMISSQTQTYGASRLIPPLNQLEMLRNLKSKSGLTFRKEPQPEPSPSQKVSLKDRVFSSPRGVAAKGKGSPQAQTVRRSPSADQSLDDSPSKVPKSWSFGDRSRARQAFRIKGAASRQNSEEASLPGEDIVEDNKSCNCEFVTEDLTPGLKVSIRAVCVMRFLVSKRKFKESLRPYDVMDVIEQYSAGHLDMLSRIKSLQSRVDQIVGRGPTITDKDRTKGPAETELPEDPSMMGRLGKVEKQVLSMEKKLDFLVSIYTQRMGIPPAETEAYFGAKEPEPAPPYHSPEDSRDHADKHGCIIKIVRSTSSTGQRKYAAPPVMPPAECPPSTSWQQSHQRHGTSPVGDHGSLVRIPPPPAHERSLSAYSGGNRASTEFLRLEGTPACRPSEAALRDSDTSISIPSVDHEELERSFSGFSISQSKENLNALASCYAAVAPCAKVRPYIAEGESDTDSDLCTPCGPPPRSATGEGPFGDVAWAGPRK
# KCNQ2 pot baseline = also measured in KCNQ2 pot; calls as there; B-score; compound at 10 µM; measured here: initial fluorescence intensity artifact check;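 brightness before thallium and not channel activity; 0 = typical well and far values either way flag optical interference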
# * marks the source's active call; other numbers are inactive results.
SMILES,KCNQ2 pot,KCNQ2 pot baseline
CCN1CCN(C/C(C)=C/c2ccccc2)CC1,1.7,1.9
Cc1nn(Cc2c(Cl)cccc2Cl)c(Cl)c1/C=C/C(=O)OCC(=O)NCC(F)(F)F,0.05,1.6
Cc1nc2cc3nc(C)sc3cc2s1,0.2,-0.12
CCOC(=O)c1cc2c3ccccc3n(CC)c2nc1N,1.2,-1.2
Cc1cc(C)c2c(CC(=O)O)coc2c1,0.55,0.01
COC(CNC(=O)c1ccc2c(c1)nc(C)n2-c1ccc(F)c(F)c1)OC,0.02,-1.6
Cc1ccc(NC(=O)CSc2nnc(Cn3cnc4ccccc43)o2)cc1,0.04,-0.39
CC(C)(C)NC(=O)C(=O)N/N=C/c1cccs1,1.1,0.02
Cc1ccc(C)c2[nH]c(=O)c(CCNC(=O)C(C)(C)C)cc12,0.01,-0.46
O=C(COc1ccccc1)NC1C(=O)N2C(C(=O)O)=C(Cl)CSC12 (stereo not drawn),0.19,0.97
Cc1cc(Cl)ccc1NC(=S)NCCCN1CCCC1=O,0.1,-0.11
CCOC(=O)c1cccc(NC(=O)c2cc3ccccc3o2)c1,1,1.3
COC(=O)Cn1cccc1C(=O)c1ccccc1,1.5,-0.38
O=C(NNC(=S)Nc1ccccc1Cl)c1ccccc1Br,0.23,-0.02
COc1cc(/C=N/Nc2nc(=O)[nH]nc2C)ccc1O,0.34,-0.08
Nn1cnnc1N/N=C/c1ccc(Cl)c([N+](=O)[O-])c1,1.4,-0.21
CCCSc1ccc(C(=O)Nc2ccc(F)cc2F)cn1,0.13,0.94
CC(C)(C)NC(=O)/C(=C\c1cccnc1)NC(=O)c1ccco1,0.4,-2.1
O=C(CCN1C(=O)c2ccccc2C1=O)Nc1ccc(-c2nc3ccccc3s2)cc1,0.35,-2.1
CS(=O)(=O)N1CCN(C(=O)CSc2ccccc2)CC1,1.7,0.15
O=C(NCCOc1ccccc1)C1Nc2ccc(OC(F)(F)F)cc2C2C=CCC12 (stereo not drawn),0.09,0.12
Cn1nccc1NC(=O)Nc1ccc(OC(F)(F)F)cc1,1.8,0.03
Cc1ccc(-c2nnn(CC(=O)N(CC3CCCO3)C(C(=O)NC(C)(C)C)c3ccc(F)cc3)n2)o1 (stereo not drawn),1.5,-0.68
COCCn1ccc2c(OCC(=O)NCCc3ccc(OC)c(OC)c3)cccc2c1=O,0.25,-2.5
Cn1c2ccccc2c2nnc(SCc3nnc(-c4ccccc4)o3)nc21,1.3,-1
CN(C(=O)CSc1nnc(-c2ccccc2)n1C)C1CCS(=O)(=O)C1 (stereo not drawn),1.3,-0.46
COc1ccc2c(-c3ccccc3)cc(SCC(N)=O)nc2c1,0.52,-0.68
Cc1ccc(S(=O)(=O)N2CCN(S(=O)(=O)c3ccccc3)C2c2ccc(N(C)C)cc2)cc1 (stereo not drawn),1.2,-0.71
C=CCn1c(CCNC(=O)c2cccs2)nnc1SCC(=O)c1ccc(Br)cc1,0.52,-0.23
COc1ccc(Nc2ccc(Nc3ccc(OC)cc3)nn2)cc1,0.2,-0.7
O=C(COc1cccc([N+](=O)[O-])c1)NN1C(=O)c2ccccc2C1=O,1,-0.09
O=C(O)CCC(=O)CCC(=O)c1ccccc1,1.3,0.67
CCN1C=CC(=C2C(=O)c3ccccc3C2=O)C=C1,0.83,0.02
c1ccc(-c2nc(-c3ccncc3)no2)cc1,0.06,0.18
O=C1/C(=C\c2cccs2)SC(=S)N1C1CCS(=O)(=O)C1 (stereo not drawn),1.4,-0.13
Cn1c(=O)[nH]c(=O)c2c1nc(N1CCOCC1)n2CCSc1nc2ccccc2[nH]1,0.75,-0.02
CCOC(=O)c1cn2nc(Oc3cccc(F)c3)ccc2n1,0.84,0.05
CCCCNC(=O)C1CCC(CNS(=O)(=O)c2cccc3nsnc23)CC1 (stereo not drawn),0.86,-1.5
O=C(CN1CCOCC1)Nc1ccc(S(=O)(=O)NC2CCCCC2)cc1,0.63,-0.98
Cn1c(=O)c2c(nc(NCc3ccco3)n2Cc2ccc(Cl)cc2Cl)n(C)c1=O,0.17,-1.7
O=C(O)COc1ccccc1/C=N/NC(=O)/C(=C\c1ccc2c(c1)OCO2)NC(=O)c1ccccc1,0.55,0.21
COc1cc(NC(=S)Nc2cccnc2)cc(OC)c1,1.8,1.4
CCOc1ccccc1C(=O)Nc1nnc(CC)s1,0.83,0.88
Cc1ccccc1CN1CCC(n2nccc2NC(=O)CCOc2ccccc2)CC1,0.29,2.3
CCOC(=O)CSc1nnc2c3ccccc3n(C)c2n1,0.33,-0.1
C/C(=N\N)c1c(-c2ccccc2)c2cc(Br)ccc2[nH]c1=O,1.1,-1.2
Nc1cc(N)c(OCC(F)(F)F)cc1OCC(F)(F)F,0.27,1.8
CCOc1ccccc1CNCCNCC(C)O (stereo not drawn),0.02,0.09
O=C(CCCCCNc1nc(=S)[nH]c2ccccc12)NCCc1c[nH]c2ccccc12,3.3,-2
CC(=O)OCC(=O)[C@@]1(O)CC[C@H]2[C@@H]3CCC4=CC(=O)C=C[C@]4(C)[C@@]3(Cl)[C@@H](Cl)C[C@@]21C,0.86,0.94
# (cont.)
SMILES,KCNQ2 pot,KCNQ2 pot baseline
O=C(NC1CCS(=O)(=O)C1)c1cccs1 (stereo not drawn),0.67,-2.6
COc1ccc(CN(Cc2cccn2C)C(=O)c2cc3cc(OC)ccc3[nH]2)cc1,0.14,0.77
O=C(NCCc1ccc(F)cc1)N[C@@H](Cc1ccccc1)C(=O)O,1.3,-0.66
COc1ccc(CCNC(=O)CCCCC(=O)NCCc2ccc(OC)cc2)cc1,1,0.09
Cc1c(-c2ccccc2)sc2nc[nH]c(=S)c12,10*,1.6*
O=[N+]([O-])c1ccc(Cl)cc1N1CCOCC1,1,-0.67
COc1ccc(OC)c(NC(=O)CSc2ccc3nnc(-c4ccccn4)n3n2)c1,0.64,-0.43
O=C(N/N=C\c1ccc(CNS(=O)(=O)c2ccccc2)o1)C(=O)Nc1ccc(F)cc1,0.42,-1.4
Cc1ccc(NC(=O)CSc2nnc(Cn3c(=O)sc4ccccc43)n2C)cc1,0.26,0
CSCc1ccc(C(=O)NCc2ccccc2)cc1,1.5,0.02
O=[N+]([O-])c1cccc(NC(=S)N2CCCC2)c1,1.1,1.2
CN1CCN(Cc2cc(COCc3ccccc3)c3cccnc3c2O)CC1,0.06,0.6
CC(=O)Nc1ccc(SCC(=O)Nc2ccccc2Oc2ccccc2)cc1,1.4,-1.2
COc1ccccc1C1=NOC(Cn2c(NCCCO)nc3c2c(=O)n(C)c(=O)n3C)C1 (stereo not drawn),0.64,0.14
O=C(CCN1C(=O)/C(=C/c2ccccc2F)SC1=S)NCCCN1CCOCC1,0.29,0.58
O=C(COc1ccc2c(-c3ccccc3)cc(=O)oc2c1)NCc1ccccn1,0.75,-2.5
O=C1C2C3C=CC(C3)C2C(=O)N1c1ccc2ccccc2c1 (stereo not drawn),0.44,-0.16
COCCCC1CCN(Cc2nc(-c3ccccc3)no2)CC1,0.37,1.1
Cc1cccc(NC(=O)c2ccc([N+](=O)[O-])s2)n1,0.94,-0.44
Cc1ccc(-c2nnn(CC(=O)N(CC3CCCO3)C(C(=O)NC3CCCCC3)c3ccc(F)cc3)n2)o1 (stereo not drawn),0.53,-0.11
Cc1cccc(CSC2=NCCN2C(=O)c2ccc(S(=O)(=O)N(C)C)cc2)c1,1.4,-1.3
CC(=O)N1CCN(CC(=O)c2ccc(Br)cc2)CC1,0.07,2.3
NC(=O)c1ccc(NC(=O)C2CCCC2)cc1,1.6,-1.3
Cc1cc(C)n(-c2nc(NCCO)c3c4c(sc3n2)CCCC4)n1,1.7,-1.6
COc1cc(/C=N/n2nnnc2N)ccc1O,0.11,0.43
CC(=O)Nc1ccc(N(C)S(C)(=O)=O)cc1,0.96,-0.23
COc1ccc(NC(=O)Nc2c[nH]c(=O)[nH]c2=O)cc1,0.36,-1.6
Cc1cccc(N2CCN(C(=O)Cn3nc(C)n4cccc4c3=O)CC2C)c1 (stereo not drawn),0.71,0.18
O=C(c1cccc(N2CCNC2=O)c1)N1CCCC(Nc2cccc(F)c2)C1 (stereo not drawn),0.3,-0.07
CCOc1ccccc1CN1CCC(Oc2ccc(C(=O)NCc3ccccn3)cc2)CC1,0.38,-0.79
CCOc1ccc(NC(=O)NN2C(C)CCCC2C)cc1 (stereo not drawn),0.52,-2.2
CC(=O)N1CCc2cc(S(=O)(=O)NC(CC(C)C)C(=O)Nc3cc(C)ccn3)ccc21 (stereo not drawn),0.98,1.7
CNC(=O)c1cc(S(=O)(=O)Nc2ccc(C)cc2C)ccc1C,1.2,0.55
N/C(=N\OC(=O)COc1ccc2ccccc2c1)c1ccccn1,0.47,0.61
COCCn1c(SCC(=O)N2CC(=O)Nc3ccccc32)nnc1-c1ccoc1C,0.39,1.1
CCn1c(SCC(=O)N/N=C/c2ccccc2OCC(=O)O)nnc1-c1ccc(OC)cc1,1.1,0.36
COC(=O)C(C)Sc1ncnc2c1c(-c1ccccc1)cn2-c1ccc(OC)cc1 (stereo not drawn),0.21,1.4
Cc1cc([N+](=O)[O-])ccc1NC(=O)CN1CCN(Cc2ccccc2)CC1,0.96,-0.88
Fc1ccc(NC(=S)NC2CCN(Cc3ccccc3)CC2)cc1,0.9,0.28
CCOC(=O)c1cc(NC(=O)c2cccnc2)ccc1N1CCOCC1,0.35,1.4
CCOC(=O)c1ccc(CS(=O)c2ccc(Cl)cc2)o1 (stereo not drawn),1.5,0.75
O=C(CCS(=O)(=O)c1ccc(Br)s1)N1CCc2ccccc21,1.6,-0.05
CCN(CC)C(=O)C1CCCN(Cc2nc(-c3cnccn3)no2)C1 (stereo not drawn),0.03,1.2
CCc1cc2cccc(C)c2nc1SCC(=O)NNC(=O)c1ccco1,0.08,-0.59
CCCCNC(=O)C1CCN(Cc2ccccn2)CC1,0.49,-0.22
Cc1c(O)ccc(C(=O)CN2CCN(c3ccccc3F)CC2)c1O,0.04,0.97
O=C(Nc1cc(Cl)cc(Cl)c1)c1cccnc1,0.77,-0.15
Cc1ccc(-c2nnc3ccc(SC(C)C(=O)O)nn23)cc1 (stereo not drawn),0.89,0.16
O=c1c2ccccc2nc2c3ccccc3c(NCc3ccccn3)nn12,0.38,0.69
CC(C)C(=O)Nc1ccc(S(=O)(=O)Nc2nccc(/C=C/c3ccccc3)n2)cc1,0.55,-1.3
# The list continues:
SMILES,KCNQ2 pot,KCNQ2 pot baseline
Cc1ccc(S(=O)(=O)N2CCCCC2)cc1NC(=O)COC(=O)Cc1ccc(Cl)cc1,0.15,-0.45
O=C(N/N=C/c1ccc(O)cc1)/C(=C/c1ccc([N+](=O)[O-])cc1)NC(=O)c1ccccc1,0.71,-0.56
O=C(Nc1nccs1)[C@@H]1CC=C[C@@H]2CCN(Cc3ccccc3)C(=O)[C@@H]21,1.2,0
CCOc1cc(C(N)=O)cc(Cl)c1OCc1ccccc1,0.49,-1.4
O=C1CN(C(=O)CSc2nnc(C3CC3)n2-c2ccccc2)c2ccccc2N1,0.59,-0.92
COc1ccc(N2C(=O)CC(SCC(=O)O)C2=O)cc1 (stereo not drawn),0.49,2
O=C(NCC(=O)N1CCc2ccccc2C1)c1ccc(Cl)cc1Cl,0.07,-0.19
CC1CCc2c(C(=O)Nc3ccc(N4CCOCC4)cc3)csc2C1 (stereo not drawn),0.61,-0.02
O=C(O)c1ccc2c(c1)N(Cc1cccc(F)c1)C(=O)CS2,1.3,-0.47
CCCC(=O)OCC(=O)NCc1ccc(Cl)cc1,0.44,0.02
CC(=O)OCCC(NS(=O)(=O)OCC(Cl)(Cl)Cl)c1ccccc1 (stereo not drawn),1.4,-0.96
Cc1ccc2[nH]c(=O)c(CN(CC3CCCO3)C(=O)c3ccncc3)cc2c1 (stereo not drawn),0.15,-1.3
COc1ccc(/C=C2/SC(=S)N(Cc3ccccc3)C2=O)cc1O,0.12,-0.91
Cc1nnc(SCC(=O)N(C)C2CCS(=O)(=O)C2)n1Cc1ccccc1 (stereo not drawn),1.3,0.02
CCOC(=O)c1[nH]c2ccc(OC)cc2c1NC(=O)c1nonc1C,0.16,-1.6
CC(C)=CCC/C(C)=C/C(=O)O,0.17,1.9
COc1ccc(CCNC(=O)C2CC(=O)N(c3ccc(C)cc3)C2)cc1OC (stereo not drawn),2,-1.6
Cc1nn(-c2cccc(Cl)c2)nc1C(=O)O,1,-1.9
Cn1c(=O)[nH]c(=O)c2c1nc(NCCO)n2CCOc1ccccc1,0.56,0.42

# Filtered by structure: the entries above containing two or more sulfur atoms (15)
SMILES,KCNQ2 pot,KCNQ2 pot baseline
Cc1nc2cc3nc(C)sc3cc2s1,0.2,-0.12
CS(=O)(=O)N1CCN(C(=O)CSc2ccccc2)CC1,1.7,0.15
CN(C(=O)CSc1nnc(-c2ccccc2)n1C)C1CCS(=O)(=O)C1 (stereo not drawn),1.3,-0.46
Cc1ccc(S(=O)(=O)N2CCN(S(=O)(=O)c3ccccc3)C2c2ccc(N(C)C)cc2)cc1 (stereo not drawn),1.2,-0.71
C=CCn1c(CCNC(=O)c2cccs2)nnc1SCC(=O)c1ccc(Br)cc1,0.52,-0.23
O=C1/C(=C\c2cccs2)SC(=S)N1C1CCS(=O)(=O)C1 (stereo not drawn),1.4,-0.13
CCCCNC(=O)C1CCC(CNS(=O)(=O)c2cccc3nsnc23)CC1 (stereo not drawn),0.86,-1.5
O=C(NC1CCS(=O)(=O)C1)c1cccs1 (stereo not drawn),0.67,-2.6
Cc1c(-c2ccccc2)sc2nc[nH]c(=S)c12,10*,1.6*
Cc1ccc(NC(=O)CSc2nnc(Cn3c(=O)sc4ccccc43)n2C)cc1,0.26,0
O=C(CCN1C(=O)/C(=C/c2ccccc2F)SC1=S)NCCCN1CCOCC1,0.29,0.58
Cc1cccc(CSC2=NCCN2C(=O)c2ccc(S(=O)(=O)N(C)C)cc2)c1,1.4,-1.3
O=C(CCS(=O)(=O)c1ccc(Br)s1)N1CCc2ccccc21,1.6,-0.05
COc1ccc(/C=C2/SC(=S)N(Cc3ccccc3)C2=O)cc1O,0.12,-0.91
Cc1nnc(SCC(=O)N(C)C2CCS(=O)(=O)C2)n1Cc1ccccc1 (stereo not drawn),1.3,0.02

# The list is partial; rates above refer to the full screens.
